# Mtb betalactam: beta-lactam sensitization of Mtb H37Rv | M. tuberculosis H37Rv growth with meropenem, percent inhibition; hits of this screen are not shown here | 0.27% of 330,000 active | inhibition, % at 25 µM;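 active = about 74% or more and at least 40 points above the plate without the antibiotic, then above 30% in a dose series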;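 also: growth measured after seven days incubation then overnight dye step; 0% = bacteria only wells and 100% = bacteria with antibiotic; twin plates without the antibiotic show which effects depend on it; some results filed as inactive read as strong as hits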
# Arbovirus anti: arbovirus infection inhibition; arbovirus infection cell-based antiviral screen; inhibition, % at 10 µM; 0.37% of 200,000 active; AID 1251;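 active = inhibition from about 30%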;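 also: bluetongue infection of BSR cells; cell survival read as ATP light after 72 h; 0% = infected wells without compound and 100% = uninfected wells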
# YopH inh: blocks Yersinia enterocolitica YopH tyrosine phosphatase; fluorescence Ex485/Em525; inhibition, %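 (about 10 µM by stock and volumes)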; 0.16% of 140,000 active;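 active = inhibition of 50% or more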;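 also: controls were vehicle for no effect and minimum signal wells for full effect; inactives centre near -20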
# Mtb H37Rv: M. tuberculosis H37Rv growth inhibitors, H37Rv strain (AID 1626). inhibition, % at 10 µM, or IC50 in µM where a hit was titrated. 0.95% of 220,000 active. M. tuberculosis H37Rv growth inhibition; higher % means a stronger effect;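 active = confirmed in a dose series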;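 also: bacteria incubated seven days before Alamar blue readout; 0% = bacteria only wells and 100% = bacteria with antibiotic wells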
# RecA splice inh: blocks M. tuberculosis RecA intein splicing; P9WHJ3; cell-free RecA intein splicing, fluorescence; inhibition, %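 (about 9 µM by stock and volumes)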; 0.75% of 290,000 active; AID 2221; in the data active = inhibition above about 30%;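 also: 0% = vehicle wells and 100% = reference inhibitor control wells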
# Target sequence (P9WHJ3 whole entry, looked up, canonical isoform): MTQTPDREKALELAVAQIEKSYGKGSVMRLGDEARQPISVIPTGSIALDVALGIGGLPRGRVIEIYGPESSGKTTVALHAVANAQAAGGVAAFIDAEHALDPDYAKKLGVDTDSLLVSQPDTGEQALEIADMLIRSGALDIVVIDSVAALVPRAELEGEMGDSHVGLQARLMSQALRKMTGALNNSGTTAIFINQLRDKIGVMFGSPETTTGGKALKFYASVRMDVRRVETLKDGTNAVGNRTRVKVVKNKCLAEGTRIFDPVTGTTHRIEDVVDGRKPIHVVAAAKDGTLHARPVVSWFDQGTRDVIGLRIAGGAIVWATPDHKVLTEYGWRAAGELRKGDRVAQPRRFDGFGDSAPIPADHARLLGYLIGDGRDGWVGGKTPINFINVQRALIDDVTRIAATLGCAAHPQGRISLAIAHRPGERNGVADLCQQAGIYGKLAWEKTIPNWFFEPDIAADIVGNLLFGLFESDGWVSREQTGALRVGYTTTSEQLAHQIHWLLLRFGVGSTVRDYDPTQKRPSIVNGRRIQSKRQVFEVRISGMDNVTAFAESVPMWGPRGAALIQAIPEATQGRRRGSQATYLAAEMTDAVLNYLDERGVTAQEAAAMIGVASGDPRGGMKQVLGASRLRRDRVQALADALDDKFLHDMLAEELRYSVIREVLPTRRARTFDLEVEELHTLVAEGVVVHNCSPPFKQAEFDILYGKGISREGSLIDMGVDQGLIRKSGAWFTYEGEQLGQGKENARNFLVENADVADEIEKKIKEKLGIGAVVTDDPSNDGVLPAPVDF
# Arbovirus anti repeat: also measured in Arbovirus anti; calls as there; inhibition, %; measured here: 10K subset replicate screen; many hits read low in the repeat;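 first of two repeat runs on a subset; 0% = infected and 100% = uninfected wells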
# * marks the source's active call; other numbers are inactive results; . = no result given.
# Preview (six entries):
SMILES,Mtb betalactam,Arbovirus anti,YopH inh,Mtb H37Rv,RecA splice inh,others
CN(Cc1nccn1C)C(=O)CC1C(=O)NCCN1CC(c1ccccc1)c1ccccc1 (centres undefined),-4,2,.,-5%,-0.7,
COc1ccc(-c2nc(CS(=O)CC(=O)NCc3cccnc3)c(C)o2)cc1 (centres undefined),-4,1,-43,8%,-4.8,Arbovirus anti repeat=-3
O=C(N/N=C/c1ccc([N+](=O)[O-])o1)C1CC1,79,0,.,5%,-7.4,
CCN(Cc1ccccc1)C(=O)Cn1cc2c(n1)CCCC2,2,4,-31,0%,2.2,Arbovirus anti repeat=0
O=C1CC(c2ccc(Cl)c([N+](=O)[O-])c2)c2ccc3ccccc3c2N1 (centres undefined),6,-1,-15,16%,0.4,
Cc1ccc(SCCC(=O)NCc2ccco2)cc1,4,4,-20,9%,4.9,

# This part in full, from the first entry:
SMILES,Mtb betalactam,Arbovirus anti,YopH inh,Mtb H37Rv,RecA splice inh,others
CN(Cc1nccn1C)C(=O)CC1C(=O)NCCN1CC(c1ccccc1)c1ccccc1 (centres undefined),-4,2,.,-5%,-0.7,
COc1ccc(-c2nc(CS(=O)CC(=O)NCc3cccnc3)c(C)o2)cc1 (centres undefined),-4,1,-43,8%,-4.8,Arbovirus anti repeat=-3
O=C(N/N=C/c1ccc([N+](=O)[O-])o1)C1CC1,79,0,.,5%,-7.4,
CCN(Cc1ccccc1)C(=O)Cn1cc2c(n1)CCCC2,2,4,-31,0%,2.2,Arbovirus anti repeat=0
O=C1CC(c2ccc(Cl)c([N+](=O)[O-])c2)c2ccc3ccccc3c2N1 (centres undefined),6,-1,-15,16%,0.4,
Cc1ccc(SCCC(=O)NCc2ccco2)cc1,4,4,-20,9%,4.9,
S=c1[nH]nc(CSc2nc3ccccc3s2)n1C1CCCCC1,2,21,-36,3%,-0.4,
CS(=O)(=O)c1cnc2c(-c3ccsc3)cnn2c1N,-2,-1,.,-3%,-1.1,
NC(=S)N/N=C1\CCSc2ccc(Cl)cc21,-7,.,.,-1%,0.0,
CC(C)(C)C(=O)NC(Nc1cccc2cccnc12)C(Cl)(Cl)Cl (centres undefined),-5,-4,-21,.,8.5,
CCCc1cc(=O)[nH]c(SCC(=O)Nc2ccc(Br)cc2Br)n1,-5,22,.,-3%,-1.5,
COc1ccc(CN(C(=O)c2snc(C(N)=O)c2N)C(C(=O)NC(C)(C)C)c2ccco2)cc1 (centres undefined),1,-5,-24,-5%,2.4,
CCCc1cc(=O)n2[nH]c(-c3cccc(Br)c3)cc2n1,-1,.,.,.,-1.4,
CC(C)Cn1nc(NC(=O)C(C)(C)C)c2cc3ccccc3nc21,-8,3,-33,1%,.,
O=C(CSc1nc2ccccc2c(=O)n1-c1ccccc1)c1cccc([N+](=O)[O-])c1,1,.,.,.,-1.6,
COc1ccccc1C(=O)NCCNC(=O)c1ccc(C)nc1,-1,.,.,.,-1.2,
C=CCn1c(-c2cccn(Cc3cccc(Cl)c3)c2=O)n[nH]c1=S,-9,-1,-24,-4%,0.5,
CC1CCCCN1Cc1nc2c(c(=O)n(C)c(=O)n2C)n1CCCc1ccccc1 (centres undefined),2,.,-23,8%,3.4,
O=C(Nc1cccnc1)Nc1ccc(Br)cc1Cl,2,9,-18,-2%,-1.3,
COC(=O)c1ccccc1NC(=O)Nc1nnc(N2CCCCC2C)s1 (centres undefined),-3,9,-19,.,0.1,Arbovirus anti repeat=8
CC1C(c2ccccc2)=[N+]([O-])C2(CCCC2)N1O (centres undefined),8,10,-33,0%,-2.4,Arbovirus anti repeat=6
COc1ccc(-n2c(SCC(=O)Nc3cc(C(=O)O)ccc3C)nc3ccccc3c2=O)cc1Cl,-4,.,.,-8%,1.2,
CCOC(=O)c1cc(-c2ccccc2)n(CC(=O)N2CCCC2)c1C,11,6,-10,.,-1.9,
CSc1ccc(CN(C)CC(=O)NCc2ccc(F)cc2)cc1,-5,-9,.,2%,-1.7,
C=C1C(=O)O[C@@H]2[C@H]1CC[C@H](C)[C@]1(O)CCC(=O)[C@@]21C,-2,.,.,.,0.8,

# Other results:
SMILES,Mtb betalactam,Arbovirus anti,YopH inh,Mtb H37Rv,RecA splice inh,others
CCOCCCNC(=O)C1(O)c2cc(Br)ccc2NC(=O)N1c1ccc(CC)cc1 (centres undefined),0,.,.,.,0.4,
Cc1ccc2c(c1)C1CN(C)CCC1N2C(=O)c1ccco1 (centres undefined),0,-4,-16,4%,1.6,Arbovirus anti repeat=5
COc1cccc(C2CCCCN2Cc2nc(-c3ccc(C)o3)oc2C)c1 (centres undefined),6,2,.,-8%,0.8,
COCc1cc(C)nc2sc3c(=O)n(-c4cccc5ccccc45)nnc3c12,41,-8,-17,-8%,4.4,
Cc1ccc(-n2cc(CCCCCCCCC(=O)O)nn2)cc1,40,.,.,.,-2.6,
Cc1ccccc1C(=O)c1c[nH]c(C(=O)N2CCN(c3ccccc3F)CC2)c1,-8,-4,.,11%,6.3,
CC(CN1CCOCC1)OC(=O)c1cccc(Cl)c1 (centres undefined),4,.,.,.,-0.1,
COc1cccc(C(=O)NCc2ccccc2OC)c1,1,0,-34,-6%,1.7,
CCN(CC)c1ccc2cc(C#N)c(=O)oc2c1,3,-4,.,7%,-34,
CC1(C)OC(C(N)=O)C(C(N)=O)O1 (centres undefined),-3,2,-3,-9%,0.1,
O=C(NCCC1CCCCN1S(=O)(=O)c1ccc(F)cc1)C(=O)NCc1ccncc1 (centres undefined),2,.,.,.,-1.4,
CC1CC(C)CN(C(=O)CSc2nc(N)cc(=O)[nH]2)C1 (centres undefined),3,-1,.,-4%,-0.6,
Cc1cccn2c(=O)c(/C=N/O)c(N3CCOCC3)nc12,1,-4,.,-7%,-2.7,
CCCCOc1ccc(C(=O)N2CCN(c3ccc(N4CCOCC4)nn3)CC2)cc1,-5,.,.,.,0.1,
COc1ccc(Cl)cc1S(=O)(=O)NC1CC(C)(C)NC(C)(C)C1,0,0,.,0%,3.7,
C/C(=N\NC(=S)NC(C)C)c1cccc([N+](=O)[O-])c1,39,3,-24,6%,-1.3,
FC(F)Oc1ccc(NC(=S)NCCc2ccccn2)cc1,-12,12,.,0%,-1.1,
CCCc1[nH]n(-c2ccc([N+](=O)[O-])cc2)c(=O)c1C(C)=NCc1ccncc1,-6,.,.,-3%,5.2,
O=C(CN1C(=O)NC2(CCc3ccccc32)C1=O)c1ccc(F)cc1 (centres undefined),-16,.,.,.,-1.5,
O=C(Nc1c(C(=O)c2ccccc2)oc2ccccc12)c1cc(-c2ccccc2O)n[nH]1,1,2,-23,12%,-0.5,
O=c1c(C(c2ccc(Br)cc2)c2c(O)nc3n(c2=O)CCCS3)c(O)nc2n1CCCS2,-7,.,.,4%,1.0,
Cc1ccc(OCCCNCCO)c(Br)c1,-2,-28,5,-11%,6.0,
CCOc1ccc(C2CC(c3cccc(OC)c3)Nc3nc(N)nn32)cc1 (centres undefined),17,3,1,3%,-1.8,Arbovirus anti repeat=1
CC(C)/C=C(/C(=O)c1ccc(Cl)cc1Cl)n1cncn1,3,.,.,.,11,
Oc1c(Br)cc(/C=N/n2c(-c3ccccc3)n[nH]c2=S)c(O)c1Br,-6,.,.,.,-2.2,

# In the list so far, four contain two or more sulfur atoms:
SMILES,Mtb betalactam,Arbovirus anti,YopH inh,Mtb H37Rv,RecA splice inh,others
S=c1[nH]nc(CSc2nc3ccccc3s2)n1C1CCCCC1,2,21,-36,3%,-0.4,
CS(=O)(=O)c1cnc2c(-c3ccsc3)cnn2c1N,-2,-1,.,-3%,-1.1,
NC(=S)N/N=C1\CCSc2ccc(Cl)cc21,-7,.,.,-1%,0.0,
O=c1c(C(c2ccc(Br)cc2)c2c(O)nc3n(c2=O)CCCS3)c(O)nc2n1CCCS2,-7,.,.,4%,1.0,

# Additional compounds:
SMILES,Mtb betalactam,Arbovirus anti,YopH inh,Mtb H37Rv,RecA splice inh,others
O=C(Cc1ccccc1)N1CCc2ccccc21,3,13,-12,-5%,1.0,
Cc1ccc(C(=O)Nc2ccon2)cc1S(=O)(=O)N1CCOCC1,-12,5,6,-2%,-3.0,
Cc1ccc([N+](=O)[O-])cc1NC(=O)CN(C)CCOc1ccccc1,-9,.,.,.,0.2,
Cc1cc(NC2CCCC2)n2nc(C)c(-c3ccccc3)c2n1,91,.,.,.,9.9,
COC(=O)c1cn(C(=O)c2cccc(C)c2)c2ccccc12,7,-3,.,-1%,6.8,
CC(C)=CC(=O)Nc1nnc(-c2ccccc2)s1,3,-5,-35,-1%,.,
O=C(CCSc1ccc(Cl)cc1)NCc1ccccn1,-12,11,.,-4%,-0.1,
O=C(Cc1c(C(=O)O)[nH]c2ccccc12)NCCN1CCN(c2cccc(Cl)c2)CC1,-2,3,-31,-9%,1.5,
C/C(Cn1nnc([N+](=O)[O-])n1)=N\NC(=O)c1ccc(Cl)c(Cl)c1,-3,-11,-21,22%,-5.6,
COc1ccc2c(c1)c(C(=O)CN1CCN(C)CC1)c(C)n2Cc1ccccc1,35,5,-20,48%,.,
O=C(CCNC(=O)c1ccc(Br)cc1)Nc1ccccc1N1CCCCC1,-1,.,.,.,0.8,
O=S(=O)(NC1c2cccc3cccc(c23)C1Sc1ncccn1)c1ccc(Cl)cc1 (centres undefined),-6,1,-14,16%,17,
CCOc1ccc(S(=O)(=O)N(CC(=O)O)c2ccc(C)cc2)cc1,-10,11,-16,-4%,1.7,
CC(C)c1ccc(-c2nnn(CCC(=O)O)n2)cc1,-4,1,-16,-2%,1.4,
C/C=C/C(=O)N1CC2(CC(c3cccc(NC(=O)CCCCC)c3)=NO2)C[C@H]1C(N)=O (some centres undefined),.,.,.,-7%,1.5,
O=C(O)c1cccc(N2CCCC2)c1,-5,21,-34,-7%,-6.1,
CCCCC1(O)CC(C(F)(F)F)=NN1C(=O)COc1ccccc1 (centres undefined),5,7,-45,9%,1.8,
COc1ccc(-n2c(CNC(=O)c3ccc(S(=O)(=O)N4CCCC4)cc3)n[nH]c2=S)cc1,-3,3,-34,3%,1.6,
CC(=O)Nc1ccc(NC(=O)C2CCCN2C(=O)NCc2ccccc2)cc1 (centres undefined),4,.,.,.,-2.6,
Cc1ccc(-c2nn(-c3ccccc3)cc2C(=O)Nc2ccc(C)c(S(=O)(=O)N3CCOCC3)c2)cc1,-2,-2,-43,-9%,-4.3,
CC(=O)N1CCN(S(=O)(=O)c2ccc(C)cc2)C1C (centres undefined),-2,.,.,.,-1.1,
CSc1cccc(N2CC(C(=O)Nc3cccc(S(=O)(=O)N4CCCC4)c3)CC2=O)c1 (centres undefined),-9,.,.,.,-3.6,
CC(C)OC(=O)/C(=C\c1ccccc1)NC(=O)c1ccccc1,7,-4,.,-2%,6.4,
CCc1ccc(N2CCN(C(=O)N3CCOCC3)CC2)cc1,0,5,.,5%,0.8,
Cc1c(C(=O)NC2CCCCC2)oc2c1C(=O)CC(C)(C)C2,0,-5,37,5%,2.9,

# The results go on:
SMILES,Mtb betalactam,Arbovirus anti,YopH inh,Mtb H37Rv,RecA splice inh,others
CN(C)c1ccc(NC(=O)CSc2n[nH]c(-c3ccco3)n2)cc1,51,-9,.,4%,-2.5,
COc1ccc(-c2nc3c(c(SCC(=O)Nc4cccc(O)c4)n2)Cc2c(CO)cnc(C)c2O3)cc1,2,.,.,.,-0.6,
CN1CCN(C(=O)c2cccn(Cc3c(Cl)cccc3Cl)c2=O)CC1,3,.,.,.,-1.6,
Cc1cc(C)n(CCC(=O)N/N=C/c2ccccc2O)n1,4,-21,-31,-1%,-0.9,
CC(C(=O)Nc1ccc(S(=O)(=O)N2CCCCC2)cc1)N1CCN(c2ccccn2)CC1 (centres undefined),-9,2,.,2%,-0.2,
CC(=O)CSc1nc2ccccc2o1,4,-2,-18,-5%,-3.2,
O=Cc1c(N2CCN(c3cccc(Cl)c3)CC2)nc2ccccn2c1=O,-21,-15,0,2%,-1.7,
Clc1ccc(-n2cc(COCc3ccccc3)nn2)cc1,-2,9,.,7%,1.1,
COC(=O)c1c(NC(=O)Cn2nc(C(F)F)cc2C(F)F)sc(C)c1C,-8,2,9,1%,2.0,
Cc1cccc(C(=O)NCC(=O)NNC(=O)c2ccccc2O)c1,4,.,.,.,-3.8,
CSC(=NS(=O)(=O)c1ccc(C)cc1)SC,10,-4,-3,-9%,6.8,Arbovirus anti repeat=-5
Cc1cccc(CSCc2ccc(C(=O)NC(C)C)o2)c1,9,.,.,.,1.1,
CNC(=S)N/N=C/c1cn(CCOc2cccc(OC)c2)c2ccccc12,-4,2,-25,6%,0.0,
CCOCCCNC(=O)C(c1ccc(OC)cc1)N(Cc1cccs1)C(=O)CNC(C)=O (centres undefined),8,3,.,-12%,0.2,
Cc1cc(C(C)(C)C)cc(C)c1N,-9,-10,-18,3%,2.9,
O=C(O)c1ncc(-c2ccccc2)cn1,-2,2,-36,-8%,1.3,

# Assay outcomes: PubChem BioAssay, several laboratories

# Not all compounds are listed (hit frequency here may not be typical).
